# Bioassay records deposited in PubChem by National Center for Advancing Translational Sciences (NCATS).
# GLA inh pH 4.5 = alpha-galactosidase A (human) inhibition, pH 4.5; P06280; purified enzyme, 4-MU-alpha-Gal fluorescence, pH 4.5; activity change, negative = inhibition, % at 105 µM; 230,000 tested, under 10 active; AID 1467; inconclusive = small, poorly fitted or top-dose-only inhibition, or a rising curve; inactive = flat fitted curve, though single readings scatter; no compound was filed as active;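 further: 0% = full activity with enzyme and -100% = basal without enzyme; dose as in the result columns while the protocol names 77 µM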
# Target sequence (P06280 whole entry, looked up): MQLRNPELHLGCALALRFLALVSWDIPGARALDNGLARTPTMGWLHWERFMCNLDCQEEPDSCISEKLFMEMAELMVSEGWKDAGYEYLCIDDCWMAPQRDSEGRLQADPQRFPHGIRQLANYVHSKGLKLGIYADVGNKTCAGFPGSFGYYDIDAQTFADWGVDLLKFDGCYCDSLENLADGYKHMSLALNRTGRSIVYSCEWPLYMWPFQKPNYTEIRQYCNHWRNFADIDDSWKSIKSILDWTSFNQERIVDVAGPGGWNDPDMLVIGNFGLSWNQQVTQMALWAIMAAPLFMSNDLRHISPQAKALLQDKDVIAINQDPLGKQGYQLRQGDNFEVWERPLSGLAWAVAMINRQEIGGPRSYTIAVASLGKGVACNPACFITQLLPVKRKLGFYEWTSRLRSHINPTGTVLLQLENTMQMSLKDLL
# miR-21 reporter = raises the signal of a miR-21 reporter | AID 2288 | HeLa miR-21 FLuc reporter, luciferase, 48 h | 340,000 tested, under 10 active | Potency, µM (highest dose often 38.3 µM), for inactives: at the highest dose reporter change, positive = more light; active = well fitted rising curve with a large enough effect; inconclusive = small, poorly fitted or top-dose-only effect; inactive = no such curve, though single readings can be large or run the other way;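 further: % of control where 0% means no effect; miR-21 action dims this reporter so a rising signal means less miR-21 action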
#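 HeLa cells endogenously expressing miR-21, stably carrying CMV-driven firefly luciferase with a downstream miR-21 binding site, 2000 cells/well. Titrations up to approximately 40 uM, 48 hours; luciferase luminescence read.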
# Rango-impB inh = Rango-importin beta binding inhibition; Q14974; Rango CFP/YFP FRET sensor + importin beta, 45 min; Potency, µM (highest dose often 92.2 µM), for the others: at the highest dose inhibition of complex formation; hit rate 0.031% among 340,000; AID 540263; active = rising FRET ratio curve, often small or poorly fitted; inconclusive = mostly compound fluorescence or quenching in the first reads; inactive = flat curves in all reads;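 further: potency means the concentration at half of the fitted maximal effect; 0% = DMSO wells and 100% = buffer wells lacking importin beta; nearly all actives have a fitted effect of over 15% in size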
#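 FRET biosensor (snurportin 1 IBB flanked by EYFP and cerulean), 50 nM, with compound 5 min, then 0.125 microM importin beta in PBS, 1 mM DTT, 0.02% Tween-20, 0.1% BSA. CFP/YFP ratio read after 45 min at room temperature; pre-read flags interference.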
# Rango release inh = inhibition of RanGTP-driven Rango-importin beta dissociation. hit rate 0.071% among 340,000. AID 540253. O95149+P62826. Biochemical FRET Rango-importin beta, RanGTP-induced dissociation. Potency, µM (top dose mostly 46.1 µM), inactives show at the top dose activity change, negative = inhibition; active means falling FRET ratio curve, often poorly fitted, with flat reads before Ran was added; inconclusive means other falling curves, or compound fluorescence or quenching; inactive means flat or rising ratio curve;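 further: potency means the concentration at half of the fitted maximal effect; % of control where 0% means no effect; nearly all actives have a fitted effect of over 45% in size; -100% = wells without RanGTP and RCC1; the record marks most hits as doubtful in a second field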
#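 Compounds preincubate 5 min with complex of recombinant Rango and importin beta in PBS with 1 mM DTT. Ran (0.6 uM) loaded with 2 mM GTP plus 0.2 uM RCC1 starts dissociation; FRET is recorded 45 min later.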
# * = called active by the depositor; ? = inconclusive; . = not tested or not shown; [ ] = another dose, or the depositor's remark. These rows are one share of the data, so the mix of outcomes need not match the whole.
# Letter code – A = GLA inh pH 4.5; B = miR-21 reporter; C = Rango-impB inh; D = Rango release inh
structure: Cc1ccccc1CSc1nnc(-c2ccccc2)c(=O)[nH]1
  A = 4.7[21.1 µM] | B = 4.5% | C = 0.3% | D = 2.3%

structure: CCN(CC)c1ccc(C(=O)N/N=C/c2ccc(N3CCOCC3)cc2)cc1
  A = 13.1 | B = -1.4% | C = ? | D = -4.8%

structure: CCOc1ccccc1CN1CCNC(=O)C1CC(=O)N(C)Cc1cnccn1 (stereo not drawn)
  A = . | B = 3.3% | C = -3.7% | D = -3.4%

structure: O=C(COc1nsnc1N1CCOCC1)N1CCOCC1
  A = 11.9 | B = -2.6% | C = -0.3% | D = 4.7%

structure: COc1ccc(CCNC(=O)c2cc(-c3ccncc3)nc3c(Cl)cccc23)cc1OC
  A = 5.5 | B = 0.2% | C = -4.0% | D = -2.5%

structure: Cc1cc(=O)oc2cc(OC(C)C(=O)NC3CCN(Cc4ccccc4)CC3)ccc12 (stereo not drawn)
  A = . | B = -0.2% | C = 1.1% | D = 1.5%

structure: CCC(Oc1ccccc1)C(=O)OCC(=O)N(CC)c1c(N)n(Cc2ccccc2)c(=O)[nH]c1=O (stereo not drawn)
  A = . | B = . | C = -0.3% | D = -3.1%

structure: CCC(=O)Nc1nnc(SCC(=O)Nc2ccc(F)cc2)s1
  A = -0.4 | B = -5.1% | C = 1.7% | D = -10.3%

structure: CC(C)CNC(=O)CN(c1cccc(Cl)c1)S(C)(=O)=O
  A = 2.0 | B = 0.3% | C = -2.8% | D = -1.4%

structure: CCCCC(c1nnnn1CS(=O)(=O)c1ccc(C)cc1)N1CCN(C)CC1 (stereo not drawn)
  A = 7.4 | B = -0.2% | C = -1.3% | D = 10.7%

structure: O=C(Nc1nccs1)c1ccc(COc2ccc(F)cc2)o1
  A = 6.4 | B = -22.0% | C = 8.5% | D = -2.9%

structure: Nn1c(SCC(=O)NC2CCCCCC2)nnc1C(F)(F)F
  A = . | B = . | C = 4.1% | D = 1.2%

structure: Cc1cc(NC(=O)Nc2ccc(Cl)cc2)n(-c2ccccc2)n1
  A = -1.9 | B = 1.5% | C = 0.0% | D = -9.2%

structure: CCOC(=O)c1c(C)[nH]c(C)c1C(=O)COC(=O)c1cccc(S(=O)(=O)N(CC)CC)c1
  A = -0.2 | B = 3.4% | C = -2.5% | D = -15.0%

structure: COc1ccc(CNC(=O)COC(=O)CCOc2ccc(C)cc2)cc1
  A = . | B = . | C = 4.7% | D = 11.1%

structure: CCn1nc(C)c(CNC(=O)CCc2nnc(-c3ccc(C(C)=O)s3)o2)c1C
  A = -0.4 | B = 1.3% | C = 0.5% | D = -19.0%

structure: CCCCNC(=O)c1ccc2c(=O)n(CCCOCC)c(=S)[nH]c2c1
  A = 6.5 | B = -0.1% | C = 6.7% | D = 8.5%

structure: Cc1cc2oc(=O)cc(CN(C)Cc3ccccc3Cl)c2cc1C
  A = . | B = -7.6% | C = -1.6% | D = -19.5%

structure: Cc1cc(C(F)(F)F)nc(CCNCc2c(C(=O)N3CCCC3)nc3ccccn23)n1
  A = 2.4 | B = 2.5% | C = 0.0% | D = 0.5%

structure: N#CCc1nc2n(n1)Cc1ccccc1-2
  A = -17.8 | B = -7.3% | C = 2.8% | D = -12.0%

structure: Cc1cc(C)cc(N(C(=O)c2csnn2)C(C(=O)NC2CCCC2)c2cccnc2)c1 (stereo not drawn)
  A = . | B = -2.1% | C = -2.1% | D = -14.5%

structure: O=S(=O)(c1ccc(Cl)cc1)n1ccc(-c2cccc(OCc3c(F)cccc3Cl)c2)n1
  A = -4.2 | B = -6.9% | C = 1.0% | D = -11.7%

structure: Cc1cc(C)c(NC(=O)c2ccccc2CCc2ccccc2)c(C)c1
  A = 2.1 | B = -2.2% | C = -5.9% | D = -0.3%

structure: CC(C)CC(NC(=O)c1ccccc1)C(=O)OCC(=O)Nc1ccc(Br)cn1 (stereo not drawn)
  A = -10.0 | B = -1.7% | C = -3.4% | D = 22.9%

structure: CC(=O)NC1CCCC(NC(C)=O)C1 (stereo not drawn)
  A = . | B = . | C = 2.1% | D = 21.2%

structure: Cc1cc(CSc2ccccc2)ccc1NC(=O)c1ccc(C)c([N+](=O)[O-])c1
  A = 2.3 | B = -1.6% | C = 0.4% | D = 5.5%

structure: COc1cc(NC(=O)CSc2ncnc3scc(-c4ccccc4)c23)c(C(=O)O)cc1OC
  A = -0.6 | B = -4.6% | C = -2.0% | D = 15.6%

structure: O=C(NCC(c1ccco1)N1CCc2ccccc21)c1c(F)cccc1F (stereo not drawn)
  A = . | B = . | C = 5.0% | D = -14.7%

structure: COC(=O)c1cccc(NC(=O)c2cccc([N+](=O)[O-])c2)c1
  A = . | B = -8.1% | C = 4.1% | D = 17.2%

structure: CC(C)C(=O)Nc1ccc2nn(-c3ccccc3)nc2c1
  A = -5.3 | B = -21.3% | C = -5.4% | D = -1.8%

structure: CCc1ccc(NC(=O)Cc2ccc(-n3cccc3)cc2)cc1
  A = 2.2 | B = -4.0% | C = -0.9% | D = -9.0%

structure: Cc1ccc(S(=O)(=O)N(C)c2c(C)ccc(S(=O)(=O)N3CCN(C=O)CC3)c2C)cc1
  A = 1.9 | B = 5.4% | C = 2.3% | D = 19.1%

structure: COc1cccc(CCc2nnc(CCC(=O)NCCC3CCCCO3)o2)c1 (stereo not drawn)
  A = . | B = -5.8% | C = 8.4% | D = ?

structure: Cc1ccc(N/C(N)=N/c2nc(CSc3ccccn3)cc(=O)[nH]2)c(C)c1
  A = 4.7 | B = -1.6% | C = -3.0% | D = -1.4%

structure: O=C(c1cc2ccccc2oc1=O)N(c1ccc(Cl)cc1)C1C=CS(=O)(=O)C1 (stereo not drawn)
  A = -4.0 | B = -5.8% | C = 1.1% | D = 35.5%

structure: COc1ccc(CCNC(=O)C(=O)c2cn(CC(=O)N3CCOCC3)c3ccccc23)cc1OC
  A = . | B = -15.9% | C = -1.2% | D = -6.2%

structure: CCOC(=O)CSc1nc(N)c(C(=O)Nc2ccc(N(C)C)cc2)s1
  A = 19.9 | B = 10.6% | C = -1.6% | D = 17.8%

structure: Cc1n[nH]c(C)c1S(=O)(=O)NCCc1ccc(Cl)cc1
  A = 1.8 | B = 0.7% | C = 3.4% | D = 1.7%

structure: O=C(Nc1nccs1)c1ccc(-c2ccc(F)cc2)o1
  A = 2.9 | B = -23.2% | C = 0.2% | D = -8.0%

structure: COc1ccc(S(=O)(=O)N2CCCCC2)cc1NC(=O)Cn1cnc2ccccc2c1=O
  A = . | B = . | C = 0.2% | D = -2.9%

structure: N/C(=N\OC(=O)CCC1CCCC1)c1ccccn1
  A = -9.8 | B = -66.7% | C = ? | D = 16.8%

structure: C[C@H](CO)N1C[C@H](C)[C@@H](CN(C)S(=O)(=O)c2cccs2)Oc2c(NC(=O)C3CCCCC3)cccc2C1=O
  A = . | B = . | C = -0.6% | D = 6.1%

structure: Cc1ccc(C(=O)n2nc(-c3ccco3)nc2N)cc1
  A = -2.5 | B = -5.8% | C = 6.7% | D = 7.2%

structure: Cn1c(CCNS(=O)(=O)c2ccccc2)nnc1SCc1cccnc1
  A = . | B = -0.7% | C = 6.0% | D = 6.6%

structure: Cc1oc(-c2ccccc2)cc1C(N)=O
  A = 2.8 | B = -13.8% | C = 0.3% | D = 5.6%

structure: Cc1cc(C)c(C(=O)COC(=O)[C@H](C)Nc2ccc(C(F)(F)F)cc2[N+](=O)[O-])c(C)c1
  A = -3.2 | B = -3.2% | C = -0.6% | D = 27.0%

structure: CCCCc1[nH]c(=O)c(C#N)c2c1CSC(C)(C)C2
  A = 23.5 | B = -13.5% | C = ? | D = -21.6%

structure: O=C(N/N=C/c1ccc(O)c([N+](=O)[O-])c1)c1ccncc1
  A = 2.7 | B = 4.9% | C = -1.1% | D = 1.1%

structure: Cc1noc(C)c1C(=O)NNc1ccc(C(C)C)cc1
  A = 8.5 | B = -8.5% | C = 4.1% | D = 1.8%

structure: COC(=O)c1cnc(Nc2cc(C)ccc2OC)c2ccccc12
  A = . | B = 3.9% | C = ? | D = -9.0%

# (continued)
# Letter code – A = GLA inh pH 4.5; B = miR-21 reporter; C = Rango-impB inh; D = Rango release inh
structure: Cc1ccc(OS(=O)(=O)c2c(C)nn(C)c2Cl)c(C)c1
  A = . | B = -4.1% | C = 0.1% | D = -12.3%

structure: O=C1CCCc2cc(S(=O)(=O)N3CCC(C(=O)NCc4ccccc4)CC3)ccc2N1
  A = . | B = 5.2% | C = 6.2% | D = ?

structure: Cc1ccc(-n2ncc(C#N)c2N)cc1
  A = -1.3 | B = -1.5% | C = 2.4% | D = -7.6%

structure: O=C(Nc1nccs1)c1cccc(N2C(=O)C3C4C=CC(C4)C3C2=O)c1 (stereo not drawn)
  A = 2.2 | B = 1.7% | C = 1.9% | D = 0.0%

structure: COc1ccc(N(CC(=O)NCc2cccc(OC)c2)S(=O)(=O)c2c(C)noc2C)cc1
  A = 11.3 | B = -0.3% | C = -1.9% | D = -3.5%

structure: CC1CC(C)(C)CC2(C1)NC(=O)N(CC(=O)Nc1c(F)cccc1F)C2=O (stereo not drawn)
  A = . | B = . | C = -2.4% | D = 15.8%

structure: COc1cc2nc(N3CCN(C(=O)OCc4ccccc4)[C@H](C(=O)NC(C)(C)C)C3)nc(N)c2cc1OC
  A = . | B = . | C = ? | D = -10.8%

structure: COc1cccc(CN(C)CC(=O)Nc2c(C)cccc2C(C)C)c1
  A = -4.0 | B = 12.1% | C = 4.9% | D = 4.1%

structure: COc1ccc(C(=O)Nc2nc(-c3ccc([N+](=O)[O-])cc3)c(-c3ccccc3)s2)cc1
  A = . | B = . | C = 1.1% | D = ?

structure: CCOc1ccc(NC(=O)CN(C)C(=O)CSC(C)C(=O)Nc2cc(C)on2)cc1OCC (stereo not drawn)
  A = . | B = -4.4% | C = 1.1% | D = -15.2%

structure: COc1cccc(/C=N/NC(=O)CNC(=O)c2cccs2)c1O
  A = 2.9 | B = 13.4% | C = ? | D = ?

structure: NNC(=O)c1cc(C23CC4CC(CC(C4)C2)C3)[nH]n1
  A = . | B = -15.3% | C = 2.2% | D = 0.1%

structure: COc1ccc(-c2nn(-c3ccccc3)cc2C(=O)Nc2nc(CC(C)=O)ns2)cc1
  A = -6.7 | B = 16.4% | C = -1.2% | D = 0.8%

structure: Oc1cccnc1CN1CCOCC1
  A = . | B = . | C = 0.1% | D = -18.3%

structure: CC(C)(C)NS(=O)(=O)c1ccc(CCC(=O)Nc2ccc3c(c2)OCCO3)cc1
  A = -7.0 | B = -12.5% | C = -2.0% | D = 7.7%

structure: CCCCNc1ncnc2c1cnn2-c1ccc(Cl)cc1
  A = 3.1 | B = -9.9% | C = 2.5% | D = -2.7%

structure: O=C(Nc1ccc2nc(-c3cccs3)c(-c3cccs3)nc2c1)N1CCOCC1
  A = -8.9 | B = 8.9% | C = ? | D = ?

structure: CCC(=O)Nc1ccc(N2CCN(Cc3ccccc3)CC2)cc1
  A = -3.2 | B = -5.6% | C = 1.2% | D = 0.0%

structure: COC(=O)C(C)Sc1nc2c(c(=O)n1-c1ccccc1)SCC2 (stereo not drawn)
  A = -1.0 | B = 2.4% | C = 2.1% | D = 2.3%

structure: O=C(N/N=C/c1ccc([N+](=O)[O-])o1)c1cn(-c2ccccc2)nc1-c1ccc(F)cc1
  A = 0.7 | B = 3.6% | C = -1.9% | D = -1.9%

structure: CCOc1cc(NC(=O)C2CCCO2)c(OCC)cc1NC(=O)C1CC1 (stereo not drawn)
  A = 4.8 | B = -0.6% | C = -3.9% | D = 19.0%

structure: O=C(COc1cccc(F)c1)Nc1nc(-c2cccnc2)cs1
  A = . | B = . | C = 1.0% | D = -12.1%

# Some of the entries above in another layout.
Structure | GLA inh pH 4.5 | miR-21 reporter | Rango-impB inh | Rango release inh
CCOc1cc(NC(=O)C2CCCO2)c(OCC)cc1NC(=O)C1CC1 (stereo not drawn) | 4.8 | -0.6% | -3.9% | 19.0%
N#CCc1nc2n(n1)Cc1ccccc1-2 | -17.8 | -7.3% | 2.8% | -12.0%
CC(C)CNC(=O)CN(c1cccc(Cl)c1)S(C)(=O)=O | 2.0 | 0.3% | -2.8% | -1.4%
Cc1ccc(S(=O)(=O)N(C)c2c(C)ccc(S(=O)(=O)N3CCN(C=O)CC3)c2C)cc1 | 1.9 | 5.4% | 2.3% | 19.1%
